High-throughput results as filed in PubChem.
StopGo reporter – FMDV 2A StopGo reporter, luciferase signal; human cells with a luciferase reporter of 2A StopGo recoding; control for the full effect not named in the record; Potency, µM (titrated, usually from 57.9 µM), without a hit: top-dose signal change, negative = less light; actives 1.2% (n = 410,000); active = well fitted falling curve with a large enough effect; inconclusive = small, poorly fitted or top-dose-only effect; inactive = no such curve, though single readings can be large or run the other way; tested in HEK293T cells; note: % is set by controls: 0 for no effect and ±100 for the full control effect; nearly all actives have a fitted effect of over 45% in size; luciferase light after 4 h
LASV entry inh – Lassa virus entry inhibition; AID 540256; actives 1.2% (n = 300,000); Potency, µM (series often up to 37.9 µM), for the others: at the top dose activity change, negative = inhibition, actives largely listed as inhibitors; Lassa virus pseudotype entry inhibition, cell reporter; control for the full effect not named in the record; active means well fitted inhibition curve with a large enough effect; inconclusive means small, poorly fitted or top-dose-only effect, or effect the other way; inactive means flat fitted curve, though single readings scatter; tested in HEK293 cells; note: % is set by controls: 0 for no effect and ±100 for the full control effect; nearly all actives have a fitted effect of over 50% in size; luciferase read-out
NS1 inh – influenza NS1 inhibition | S. cerevisiae slowed by influenza A NS1, growth recovery by OD600 | actives 0.4% (n = 270,000) | Potency, µM (highest dose often 46.1 µM), for inactives: at the top dose activity, positive = more growth; active means well fitted rising curve with a large enough effect; inconclusive means small, poorly fitted or top-dose-only effect; inactive means no such curve, though single readings can be large or run the other way; note: nearly all actives have a fitted effect of over 50% in size
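Growth recovery, yeast-based: influenza A NS1 expressed in S. cerevisiae causes slow growth, and suppressors are detected by OD600. The parent strain without NS1 is used as positive control.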
Cruzain inh Det – inhibitors of Trypanosoma cruzi cruzain with detergent; P25779; purified cruzain, Z-FR-AMC fluorescence, 0.01% Triton; Potency, µM, for inactives: max response, negative = inhibition, actives largely listed as inhibitors; actives 0.43% (n = 200,000); AID 1478;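 note: plate controls were neutral wells for no effect and buffer without enzyme for full effect; nearly all actives have a fitted effect of over 40% in size; top concentration of the series not given in the record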
Target sequence (P25779 123-467 limits assumed): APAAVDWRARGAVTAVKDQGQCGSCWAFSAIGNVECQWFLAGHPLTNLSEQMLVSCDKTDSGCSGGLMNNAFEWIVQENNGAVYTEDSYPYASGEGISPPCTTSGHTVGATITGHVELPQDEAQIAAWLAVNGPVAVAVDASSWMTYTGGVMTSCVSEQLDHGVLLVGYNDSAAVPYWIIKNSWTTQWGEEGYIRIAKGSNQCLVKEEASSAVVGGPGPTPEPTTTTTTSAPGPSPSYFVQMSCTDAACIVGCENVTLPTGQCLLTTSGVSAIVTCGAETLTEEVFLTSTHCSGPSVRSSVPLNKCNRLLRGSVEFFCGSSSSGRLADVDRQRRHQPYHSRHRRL
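Enzyme 1.5 nM, Z-FR-AMC 2 uM, NaOAc 100 mM pH 5.5, DTT 5 mM, Triton X-100 0.01%; 15 min RT compound preincubation; kinetic ex360/em450, 60 s delta.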
SARS PLpro yeast – blocks SARS-CoV papain-like protease in a yeast assay | actives 0.19% (n = 330,000) | Potency, µM (highest dose often 32.9 µM), inactives show top-dose activity, positive = growth rescue | AID 485353 | S. cerevisiae expressing SARS-CoV PLpro, growth rescue; control for the full effect not named in the record; active means well fitted rising curve with a large enough effect; inconclusive means small, poorly fitted or top-dose-only effect; inactive means no such curve, though single readings can be large or run the other way; note: 0% is about no effect; nearly all actives have a fitted effect of over 55% in size; growth read by luminescence after 48 h
RE007 growth inh – less growth of the S. pombe RE007 Vpr strain | S. pombe RE007 Vpr strain, BacTiter-Glo ATP luminescence, 24 h; control for the full effect not named in the record | AID 651644 | Potency, µM (highest dose often 92.2 µM), inactives show at the top dose activity change, negative = less growth | actives 0.21% (n = 360,000); active = well fitted falling curve with a large enough effect; inconclusive = small, poorly fitted or top-dose-only effect; inactive = no such curve, though single readings can be large or run the other way;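 note: % is set by controls: 0 for no effect and ±100 for the full control effect; nearly all actives have a fitted effect of over 50% in size; the assay follows cell death caused by Vpr and the record does not say whether a fall means rescue or toxicity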
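Fission yeast strain RE007, carrying one chromosomally integrated HIV-1 vpr copy, was seeded at OD 0.01 in PMG+AL medium with 23 nL pinned compound. After 24 h at 30 °C and 99% humidity, viability was read by BacTiter-Glo luminescence.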
Marburg entry inh – inhibitors of Marburg virus binding or cell entry; actives 1.8% (n = 300,000); Marburg virus pseudotyped entry inhibition, cell reporter; control for the full effect not named in the record; about a third of the inactives were read at about 46 µM; AID 540276; Potency, µM (titrated, usually from 37.8 µM), for the others: at the highest dose activity change, negative = inhibition, usual class: inhibitors; active = well fitted inhibition curve with a large enough effect; inconclusive = small, poorly fitted or top-dose-only effect, or effect the other way; inactive = flat fitted curve, though single readings scatter; tested in HEK293 cells; about a fifth of its hits are not listed in these tables; note: % is set by controls: 0 for no effect and ±100 for the full control effect; luciferase read-out
Cruzain noTriton – cruzain (T. cruzi) inhibition without detergent | AID 1476 | Potency, µM, for the others: max response, negative = inhibition, most hits filed as inhibitors | actives 2.3% (n = 200,000) | purified cruzain, Z-FR-AMC fluorescence, no detergent;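 note: plate controls were enzyme without inhibitor for no effect and buffer without enzyme for full effect; nearly all actives have a fitted effect of over 40% in size; top concentration of the series not given in the record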
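Detergent-free condition (0.00005% Triton X-100) in acetate buffer pH 5.5 with DTT. 1.5 nM enzyme and compound were pre-mixed 15 min, then 2 uM Z-FR-AMC substrate added; reaction progress from fluorescence change between first and third reads (60 s).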
Numbers without * were called inactive; ? = inconclusive; nt = not tested or not shown; & = joins results of further samples; [ ] = another dose, or the depositor's remark. Unless noted, calls come from the whole dose curve; as a rule, active = well fitted curve in the direction sought with a large enough effect; inconclusive = small, poorly fitted or top-dose-only effect, or another doubt; inactive = no such curve, though single readings can be large; an effect the other way counts as inactive or inconclusive. Potency is the fitted concentration of half-maximal effect.

SMILES | StopGo reporter | LASV entry inh | NS1 inh | Cruzain inh Det | SARS PLpro yeast | RE007 growth inh | Marburg entry inh | Cruzain noTriton
O=C1O/C(=C\c2ccccc2)c2ccccc21 | 57%[activator] | 10% | 0% | -9.8% | -43% | -11% | -2% | -13%
Cc1ccc(NC(=O)CN2C(=O)S/C(=C\c3cc(Cl)c(OCC(=O)O)c(Cl)c3)C2=O)cc1 | 1% | nt | 15% | nt | 0% | -11% | nt | nt
COc1ccc(OCCn2nnc3sc4c(c3c2=O)CCC(C(C)(C)C)C4)cc1 (centres undefined) | -27% | 22%[46.1 µM] | nt | 2.3% | nt | nt | -13%[46.1 µM] | 14%
CCOc1ccccc1NC(=O)COC(=O)C12CC3CC(CC(O)(C3)C1)C2 | 13% | 11% | nt | nt | 0% | 6% | -11% | nt
Cc1ccc(S(=O)(=O)NC(=O)COc2ccc(Cl)cc2Cl)cc1 | -16% | 20%[46.1 µM] | -24% | nt | -5% | 5% | 8%[46.1 µM] | nt
CCN1CCN(C(=O)c2ccc(N3CC4CC(C3)c3cccc(=O)n3C4)c(NC(=O)c3cc(OC)cc(OC)c3)c2)CC1 (centres undefined) | -13% | nt | -10% | nt | 6% | -1% | nt | nt
CCc1cccc(NCc2ccccc2-c2nnc(-c3ccccc3Cl)o2)c1 | 53%[activator] | ? | nt | -1.5% | nt | nt | 19%[46.1 µM] | 1%
Cc1cc(NC(=O)CN2C(=O)NC(C)(c3ccc(Cl)cc3Cl)C2=O)no1 (centres undefined) | 26% | ? | nt | nt | -18% | 7% | 1%[46.1 µM] | nt
O=C(NCc1ccc(Cl)cc1)C(=O)NCC(c1ccc2c(c1)OCO2)N1CCOCC1 (centres undefined) | -13% | 0%[46.1 µM] | nt | -2.0% | nt | nt | nt | -9%
Cc1ccc(S(=O)(=O)N(CC(=O)NCCC2=CCCCC2)Cc2ccccc2)cc1 | ? | ? | -69% | -5.3% | -25% | -10% | ? | 13%
COc1ccc(NC(=O)Cn2c(-c3ccc(F)cc3)cc(C(C)=O)c2C)c(OC)c1 | 1% | 1%[46.1 µM] | nt | 5.1% | nt | nt | nt | 1%
Cc1ccc(S(=O)(=O)Nc2nc3ccccc3nc2N2CCc3ccccc3C2)cc1 | 34%[activator] | -12% | 12% | -2.8% | -1% | 41% | 20% | ?
COc1ccc(COCC(O)CN2CCN(S(=O)(=O)c3c(F)cccc3F)CC2)cc1OC (centres undefined) | -12% | -19% | nt | nt | nt | 4% | -17% | nt
Cc1ccc(SCC(=O)c2cc(C)c(OC(=S)N(C)C)c(C)c2)cc1 | -16% | ? | 8% | 0.3% | 2% | -8% | -17% | 3%
COc1ccc(N2CCN(C(=O)NC34CC5CC(CC(C5)C3)C4)CC2)cc1 | 0% | 10% | -8% | -0.3% | -2% | 4% | 17% | 0%
Cn1nc(-c2ccc(Cl)cc2)c2cc(C(=O)NC3CC3)sc21 | -24% | nt | -6% | -7.7% | 8% | 4% | nt | 4%
COc1c2occc2c(OC(C)=O)c2c(=O)cc(C)oc12 | -22% | -1% | -6% | nt | -1% | 9% | 16% | nt
O=C(O)C1CCN(S(=O)(=O)c2cccc3nonc23)CC1 | -12% | nt | -5% | nt | 1% | 0% | nt | nt
COC(=O)C1=C(C)OC(N)=C(C#N)C1c1ccc(OC)c(OC)c1OC (centres undefined) | 17% | ? | 14% | -1.9% | 2% | -9% | 7% | -1%
O=C(CCCn1c(SCC(=O)Nc2ccccc2Cl)nc2ccccc2c1=O)NCC1CCCO1 (centres undefined) | -7% | 6%[46.1 µM] | 18% | nt | 3% | 12% | -21%[46.1 µM] | nt
COc1ccccc1CCc1nnc(CCC(=O)NCC2CCCO2)o1 (centres undefined) | 16% | nt | -1% | nt | 0% | 11% | nt | nt
S=c1[nH]nc(COc2ccccc2)n1/N=C/C=C/c1ccco1 | 2% | 0.79µM* | 2% | nt | -1% | 20% | -16%[46.1 µM] | nt
COc1cc2cc(CN(Cc3cccs3)C(=S)Nc3ccc(C)cc3)c(=O)[nH]c2cc1OC | 0% | 4.6µM* | 16% | -8.4% | -14% | 1% | ? | 9%
CC(C)C(NS(=O)(=O)c1cccs1)C(=O)NCCCN1CCCCCC1 (centres undefined) | -15% | nt | -5% | nt | -1% | -7% | nt | nt
CCCN1C(=S)c2ccccc2C1c1ccccc1 (centres undefined) | -17% | 16%[46.1 µM] | ? | nt | 2% | 20% | -28%[46.1 µM] | nt
Cc1ccc(S(=O)(=O)N2CCOCC2)cc1NC(=O)COc1cccc(-n2cnnn2)c1 | -15% | 11% | nt | nt | 4% | -4% | -9% | nt
CCCNC(=O)C(NS(=O)(=O)c1ccc2c(c1)c(=O)n(C)c(=O)n2C)c1ccccc1 (centres undefined) | -6% | nt | 3% | 4.5% | 0% | 1% | -1% | 6%
COc1cc(/C=N/NC(=O)c2cccnc2)ccc1OCC(=O)Nc1c(C)cc(C)cc1C | -18% | 4% | 29% | -1.5% | -13% | -16% | -15% | 14%
CC1(C)CC(=O)C(=C2SCCCS2)C(=O)C1 | -7% | 0% | 16% | -1.9% | -4% | 9% | -24% | 1%
COC(=O)C1CC(=O)N(CCc2c[nH]c3ccccc23)C1 (centres undefined) | 0% | -11% | ? | 2.0% | 7% | 10% | -27%[46.1 µM] | -5%
COc1ccc(CCNC(=O)c2c(C)nn(CC(C)C)c2Cl)cc1 | 1% | 2.2µM* | -18% | nt | -7% | 18% | -9% | nt
COc1ccc(CNC(=O)[C@H](C)[C@@H]2C[C@@]2(C)[C@@H](NC(=O)OCc2ccccc2)c2ccccc2)cc1OC | -15% | ? | -52% | -6.0%&-7.4% | -19% | -4% | ? | 13%&6%
CS(=O)(=O)c1ccccc1C(=O)NCCC(c1ccccc1)c1ccccc1 | -10% | 1% | -16% | nt | 1% | 2% | ? | nt
O=S(=O)(Nc1ccc(Cc2ccncc2)cc1)N1CCCC1 | -13% | -2% | 6% | 1.1% | 1% | -4% | -1% | -3%
NC(=O)c1cccnc1Sc1ccc(Cl)cc1 | 6% | -3% | 18% | -3.2% | 9% | 5% | -2% | -3%
Cc1nn(C)c2c1c(C(F)(F)F)cc(=O)n2CC(=O)N1CCCCC1C (centres undefined) | -17% | 11%[46.1 µM] | nt | -6.6% | nt | nt | nt | ?
O=C(NCc1ccc(F)cc1)C(c1ccco1)N(C(=O)c1csnn1)C1CC1 (centres undefined) | 19% | -15%[46.1 µM] | 15% | nt | 1% | 6% | ? | nt
O=C(Cn1cnc2ccccc21)N/N=C/c1ccccn1 | 0% | 12% | 13% | 6.1% | 3% | -13% | 17%[46.1 µM] | -5%
O=C(Nc1ccccc1C(=O)O)c1ccc(NC(=O)c2ccc(Br)o2)cc1 | 18% | -1% | 0% | -9.1% | 18% | -7% | -29% | ?
O=C(NC1CCCCC1)c1cc2nc(-c3ccco3)cc(C(F)(F)F)n2n1 | 3% | 5% | 2% | -7.1% | -5% | 13% | ? | ?
COc1ccc(-n2nnnc2SCC(=O)Nc2nc3c(s2)CCCC3)cc1 | ? | 0% | 10% | -6.8% | 2% | 4% | ? | -15%
COc1ccccc1C(=O)NCCN1CCN(c2ccccc2)CC1 | -5% | nt | -3% | nt | 0% | -18% | nt | nt
Nc1ncc(Br)cc1S(=O)(=O)NCCC(=O)Nc1cccc(Cl)c1 | nt | 2% | 11% | -1.5% | -4% | -11% | -12% | 8%
O=C(Nc1ccccc1)C1=C[C@H](c2csc3ccccc23)C[C@H](OCCCCO)O1 | 12% | nt | 4% | nt | -3% | 0% | nt | nt
CCC(C)C(NC(=O)c1ccccc1NC(=O)c1ccco1)C(=O)NNC(=O)c1ccc(OC)cc1 (centres undefined) | ? | -5% | 27% | -2.1% | 8% | 3% | -38% | 2%
S=C(Nc1ccc(Oc2ccccc2)cc1)Nc1cccnc1 | -5% | nt | 11% | nt | 1% | 0% | nt | nt
CCc1noc(C)c1C(=O)NCCc1ccccc1 | 13% | 22% | nt | nt | 0% | 40% | ? | nt
CN(Cc1ccc(F)cc1)C(=O)CN1C(=O)c2ccccc2S1(=O)=O | 64%[activator] | 14% | nt | nt | 0% | 6% | 2% | nt
Cc1cc(NC(=O)c2cccn2-c2nnc(N3CCCCC3)s2)ccc1Br | -2% | -3%[46.1 µM] | nt | -6.1% | nt | nt | nt | -10%
CC(c1cccnc1)N(CCN(C)C)C(=O)Nc1ccc(Cl)cc1 (centres undefined) | -7% | nt | -10% | -1.3% | -2% | 10% | nt | 3%
CSCCNCc1cn(-c2ccc(F)cc2F)nc1-c1ccccc1C | -3% | ? | -3% | nt | -1% | 1% | ? | nt
Cc1ccc(S(=O)(=O)N(CC(=O)NCCSc2ccc(Cl)cc2)c2ccccc2C)cc1 | -29% | ? | nt | -2.6% | nt | nt | nt | 2%
COc1ccc(Cn2c(=O)n(-c3ccc(F)c(Cl)c3)c(=O)c3c2c2cc(OC)ccc2n3C)cc1 | -14% | 26%[46.1 µM] | nt | -0.5% | nt | nt | nt | 7%
Cc1nc2ccccc2n1Cc1ccc(Br)cc1 | ? | -25% | nt | nt | nt | 3% | ? | nt
CC(=NCCCn1ccnc1)c1c(O)n(Cc2ccccc2)c(=O)[nH]c1=O | -14% | 3% | -10% | -1.6% | 1% | -21% | 4% | 8%
CCOc1ccccc1NC(=O)CN1C(=O)C(C)SC(C)C1=O (centres undefined) | -14% | -1% | nt | nt | -3% | 1% | -3%[46.1 µM] | nt
COCCCn1c(=N)c(C(=O)NCC2CCCO2)cc2c(=O)n3ccccc3nc21 (centres undefined) | -14% | 14% | ? | 28µM* | 11% | -27% | -1% | ?
CCN(C(=O)c1ccc2c(c1)N(Cc1cccc(Cl)c1)C(=O)c1ccccc1S2=O)c1ccccc1 (centres undefined) | -8% | -29%[46.1 µM] | nt | -3.7% | nt | nt | nt | -7%
CCN1C(=S)N[C@@H](c2cccs2)C(C(=O)OC)=C1C | -1% | nt | 3%&-2% | nt | 20%&1% | 9% | nt | nt
